# Ecoli rRNA inh – selective bacterial rRNA inhibition in E. coli | E. coli WT GFP vs humanized-ribosome RFP mutants, fluorescence, 24 h; active compounds read low; DMSO median 0, no signal -100 | GFP signal change (wild-type ribosome), % (test concentration not listed) | actives 1.6% (n = 350,000);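 active = significant combined selectivity score with lowered wild-type GFP, culture density cut under 30%, mutant RFP and density less affected; inactive = any of these conditions unmet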; also: one replicate is shown; some compounds called inactive have numbers as strong as hits
# Ecoli growth – blocks Escherichia coli growth; OD600 absorbance (test concentration not listed); actives 0.21% (n = 330,000); AID 1053175; OD600, 23 h; active compounds read low;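 active = OD600 absorbance below the run mean of sample wells minus 3.6 SD, in any replicate, cut at about 0.56 in these data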;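 also: stock transfer was 300 nL into about 60 µL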
# Vif A3G – inhibitors of Vif binding to APOBEC3G peptide, primary screen, biochemical, TR-FRET, GST-Vif 1-94, biotin-A3G peptide, dose response retest (AID 1117319); inhibition, %; hits with a dose series show IC50 in µM; actives 0.57% (n = 260,000); TR-FRET GST-Vif / biotin-A3G peptide binding; higher % means a stronger effect; test concentration not given here; strong numbers were not always called active;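 active = above the screen mean plus three standard deviations and confirmed in dose response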;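 also: Vif residues 1-94 fused to GST binding biotinylated APOBEC3G peptide 110-148; 0% = full assay without inhibitor and 100% = GST in place of GST-Vif; retest series ran down from 100 µM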
# FGF22 binding – binders of recombinant human FGF22 by thermal shift; Q9HCT0; SYPRO orange fluorescence; percent of sucrose octasulfate shift, DMSO zero; calls only at 9.99 µM; actives 1.5% (n = 340,000);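 active = melting point raised past a set limit in the mean and every replicate; three in four hits are not shown here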
# Target sequence (Q9HCT0 whole entry, looked up): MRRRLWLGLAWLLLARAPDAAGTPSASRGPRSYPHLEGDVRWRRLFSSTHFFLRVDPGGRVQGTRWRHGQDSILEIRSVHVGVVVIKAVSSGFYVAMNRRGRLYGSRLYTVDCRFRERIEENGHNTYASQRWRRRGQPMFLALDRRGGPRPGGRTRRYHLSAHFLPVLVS
# AF4-AF9 inh – blocks AF4 peptide binding to human AF9; AlphaScreen, biotin-AF4 peptide binding to FLAG-AF9; inhibition, % at 10 µM; actives 0.47% (n = 350,000); AID 651704;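 active = every replicate reaching a set inhibition limit, whatever the replicate mean, cut at about 25% in these data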;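 also: 0% = plate neutral control median and 100% = total signal loss; the record names both 10 and 1 µM as test concentration; the first replicate is given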
# HNF4A DNA FP – change in binding of human HNF4 alpha to DNA; activity change, % at 10 µM; P41235; actives 0.3% (n = 360,000); AID 1224865; HNF4a-FITC DNA binding, fluorescence polarization, 1 h; in the data active = activity change above about 30%, passing the limit was not always enough;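 also: controls were the assay level and a saturating level of protein; the project sought stronger binding though the title names inhibitors; some compounds called inactive have numbers as strong as hits; positive values seem to mean higher polarization but the record does not say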
# Target sequence (P41235 whole entry, looked up): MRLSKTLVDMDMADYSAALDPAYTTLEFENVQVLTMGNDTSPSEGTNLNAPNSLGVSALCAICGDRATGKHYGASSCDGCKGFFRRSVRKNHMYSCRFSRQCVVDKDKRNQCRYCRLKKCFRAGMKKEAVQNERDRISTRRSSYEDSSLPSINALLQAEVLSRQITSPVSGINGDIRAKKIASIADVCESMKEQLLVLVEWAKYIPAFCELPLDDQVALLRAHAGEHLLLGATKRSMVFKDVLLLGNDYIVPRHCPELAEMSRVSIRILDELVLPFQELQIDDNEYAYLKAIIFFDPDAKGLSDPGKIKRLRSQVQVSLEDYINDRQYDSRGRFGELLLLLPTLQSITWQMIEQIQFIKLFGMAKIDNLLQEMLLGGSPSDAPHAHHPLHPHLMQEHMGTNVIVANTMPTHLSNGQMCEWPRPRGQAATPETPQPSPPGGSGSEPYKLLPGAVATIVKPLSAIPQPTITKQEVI
# ALR inh – human ALR oxidase inhibition via reduced H2O2 | purified ALR, DTT oxidation, H2O2 HRP-luminol luminescence | inhibition, % (no concentration beside the values) | actives 3.8% (n = 290,000) | AID 485317;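 active = mean and each replicate at 75% or more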;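 also: stock transfer was 7.5 nL into about 7.5 µL; 0% = neutral wells and 100% = wells with inactivated enzyme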
# Target sequence (P55789 whole entry, looked up): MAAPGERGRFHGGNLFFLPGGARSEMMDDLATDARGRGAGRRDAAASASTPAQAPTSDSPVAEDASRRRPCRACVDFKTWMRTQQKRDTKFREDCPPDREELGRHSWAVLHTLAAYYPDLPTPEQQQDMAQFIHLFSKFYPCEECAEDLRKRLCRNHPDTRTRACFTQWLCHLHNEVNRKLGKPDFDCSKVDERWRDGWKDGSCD
# Ecoli rRNA inh OD600 – also measured in Ecoli rRNA inh; calls as there; OD600 change, %; measured here: OD600 growth;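 optical density of the mix in the first replicate; 0 = DMSO median and -100 = no signal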
# Ecoli rRNA inh RFP – second read-out of Ecoli rRNA inh, no call of its own (marks repeat the call); RFP signal change, %; measured here: RFP humanized mutant strains;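 first replicate; 0 = DMSO median and -100 = no signal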
# Starred values were filed as active, the others as inactive; i = inactive; . = not tested or not shown; & = joins results of further samples. Only part of the results is shown; count on the stated rates, not on these rows.
# The line under a structure holds: Ecoli rRNA inh, Ecoli rRNA inh OD600, Ecoli rRNA inh RFP, Ecoli growth, Vif A3G, FGF22 binding, AF4-AF9 inh, HNF4A DNA FP, ALR inh
> Cc1cc(O)c(CN2CCN(S(=O)(=O)c3cccs3)CC2)cc1C(C)C
  ., ., ., 0.67, 7%, i, 5.2, -4.0, -1
> OC(CNC1CCCC1)COc1ccc(F)cc1 (centres undefined)
  7, 5, -2.4, 0.7, ., ., -3.3, -0.7, -9
> Cc1cccc(Nc2cc(=O)n(C)c(=O)n2C)c1
  9, 15, -1.3, ., -1%, i, 0.7, 2.4, .
> Cc1ccccc1C(=O)NCCn1cc(SCC(=O)NCC2CCCO2)c2ccccc21 (centres undefined)
  4, 4, -1.4, 0.69, 3%, i, 0.0, -0.1, -8
> O=C(C[C@@H]1C=C[C@@H](NC(=O)C2CCOCC2)[C@@H](CO)O1)Nc1ccc(-c2ccccc2)cc1
  -1, -2, -0.2, ., ., i, -0.5, ., .
> COc1ccc(S(=O)(=O)N(C)C[C@@H]2OCCCC[C@@H](C)Oc3ccc(NC(=O)Nc4ccc(C(F)(F)F)cc4)cc3C(=O)N([C@@H](C)CO)C[C@H]2C)cc1
  7, 12, -1.4, ., ., i, -19, ., .
> C[C@H](CO)N1C[C@H](C)[C@H](CN(C)C(=O)CCCN(C)C)OCc2cn(nn2)CCCC1=O
  1, 11, -2.9, ., ., i, -3.7, ., .
> O=C(COC(=O)c1ccc(Sc2ccccc2)c([N+](=O)[O-])c1)NC1CCCc2ccccc21 (centres undefined)
  ., ., ., 0.74, 0%, ., ., -5.9, -3
> COc1ccc(C(=O)NC(=S)NCC2CCCO2)cc1 (centres undefined)
  ., ., ., 0.7, 5%, ., ., -2.3, 1
> O=C(Nc1ccc(F)cc1)N[C@H]1CC[C@H](CCn2cc(-c3ccc(F)cc3)nn2)O[C@H]1CO
  -2, 13, -0.7, ., ., i, -17, ., .
> S=c1nc[nH]c2c1[nH]c1ccc(Cl)cc12
  3, 13, 16, 0.68, -7%, i, -18, 5.9, -5
> C[C@@H]1CN([C@H](C)CO)C(=O)Cc2cc(NC(=O)Nc3ccc(C(F)(F)F)cc3)ccc2O[C@H]1CN(C)CC1CCCCC1
  -1, 14, -1.9, ., ., i, -3.3, ., .
> O=C(CCc1nc2ccccc2c(=O)[nH]1)N1CCN(S(=O)(=O)c2ccc(F)cc2)CC1
  0, 3, 3.6, 0.7, -11%, i, -0.1, 4.5, -3
> Cc1cccc(C)c1OCc1cc(C(=O)N2CCC(C3CCCCC3)C2)no1 (centres undefined)
  1, 1, 1.1, 0.65, ., i, -2.2, -3.3, .
> CCCC(=O)NNC(=O)CC(=O)Nc1ccccc1C(=O)O
  7, -6, -1.1, 0.68, ., i, -3.5, -4.3, .
> CCCc1cnc(N2CCN(C(=S)NC)CC2)nc1
  -11, -5, -3.3, 0.65, -7%, i, 0.6, -4.5, -7
> Cc1ccc(-c2ccc3c(c2)O[C@H](CN(C)C(=O)C2CC2)[C@H](C)CN([C@@H](C)CO)S3(=O)=O)cc1
  -8, -17, 9.0, ., ., i, -1.4, ., .
> CCOc1ccccc1C=NN=Cc1ccccc1O
  12, 12, 2.5, ., -6%, i, 5.9, -5.7, .
> CO[C@H]1CN(C)C(=O)c2cc(NC(=O)Nc3ccccc3)ccc2OC[C@H](C)N(CC2CC2)C[C@H]1C
  0, 1, -1.4, ., ., i, 1.9, ., .
> O=C(N[C@@H]1CC[C@H](CCn2cc(Cc3ccccc3)nn2)O[C@@H]1CO)c1cnccn1
  0, 1, -1.2, ., ., i, -0.6, ., .
> CCOC(=O)Cc1csc(NC(=O)CSc2nccn2C)n1
  10, 10, 0.1, 0.66, ., i, -0.9, 1.8, 99*
> COc1ccc(CCNC(=O)/C=C/C(=O)O)cc1
  12, 13, -4.5, 0.63, 14%, i, -1.4, -1.9, 1
> CCN(c1ccccc1)S(=O)(=O)c1cccc(C(=O)NCc2ccncc2)c1
  -2, -7, -0.9, 0.64, 1%, i, -13, -1.4, -2
> O=[N+]([O-])c1cc2c(c(CSc3ncccn3)c1)OCOC2
  7, 11, -0.1, 0.64, 1%, i, 2.1, 3.4, -1
> C[C@H](CO)N1C[C@H](C)[C@H](CN(C)S(=O)(=O)c2cccc(F)c2)Oc2ncc(C#Cc3ccc(C(F)(F)F)cc3)cc2C1=O
  0, 3, -0.4, ., ., i, -4.3, ., .
> CC1CCCCN1C(=O)CCn1c(=S)oc2ccccc21 (centres undefined)
  -9, 2, 0.6, 0.68, 1%, i, 10, -1.3, -4
> COc1ccc(N2C3=[N+](CCCC3)CC2(C)O)cc1 (centres undefined)
  ., ., ., 0.74, -5%&-1%, ., ., 0.1, -8
> CNC[C@@H]1Oc2c(NC(=O)Nc3ccccc3)cccc2C(=O)N([C@@H](C)CO)C[C@@H]1C
  4, 6, -0.6, ., ., i, -1.7, ., .
> COc1ccc(NC(=O)N(C)C[C@H]2OCCCC[C@@H](C)Oc3ccc(NS(=O)(=O)c4ccc(Cl)cc4)cc3C(=O)N([C@@H](C)CO)C[C@@H]2C)cc1
  1, 4, 0.8, ., ., i, 3.9, ., .
> COc1cccc(CNC(=O)C2CCN(S(=O)(=O)c3ccc4c(c3)CC(C)N4C(=O)C3CC3)CC2)c1 (centres undefined)
  -29, -29, -4.8, 0.64, ., i, -2.6, 0.2, -5
> COc1ccc(S(=O)(=O)N(C)C[C@H]2OCCCC[C@@H](C)Oc3ccc(NC(=O)Nc4c(C)noc4C)cc3C(=O)N([C@@H](C)CO)C[C@H]2C)cc1
  -1, -3, -0.6, ., ., i, 2.6, ., .
> CC(C)NC(=O)Nc1ccc2c(c1)C(=O)N([C@@H](C)CO)C[C@@H](C)[C@@H](CN(C)C(=O)CCCN(C)C)OCCCC[C@@H](C)O2
  3, 7, 0.6, ., ., i, -12, ., .
> S=C(NCc1ccncc1)NC1CCCCC1
  14, 5, -0.8, 0.69, -14%, i, -2.9, -1.4, -1
> C/C(=N/NC(=O)c1ccncc1)c1c[nH]c2ccccc12
  0, 1, 3.8, ., 0%, i, 1.2, -1.0, 39
> Cc1ccc(S(=O)(=O)N(C)C[C@H]2Oc3ccc(NC(=O)Cc4cn(C)c5ccccc45)cc3CC(=O)N([C@H](C)CO)C[C@@H]2C)cc1
  -4, 12, -1.3, ., ., i, -1.3, ., .
> Cc1c(Br)c([N+](=O)[O-])nn1CC(=O)N1CCCc2ccccc21
  ., ., ., 0.71, 4%, ., ., -1.5, .
> O=C(c1ccccc1Oc1ccccc1)N1CCN(c2ccccc2F)CC1
  ., ., ., 0.74, 2%, ., ., 0.9, -3
> CC(=O)Oc1ccc(C(=O)Nc2ccccc2C(=O)Nc2cccc(C(=O)O)c2)cc1
  7, 7, 8.7, 0.64, ., i, -0.6, -3.5, 12
> Cc1noc(C)c1NC(=O)N(C)C[C@@H]1Oc2ccc(NC(=O)CCN3CCOCC3)cc2C(=O)N([C@@H](C)CO)C[C@@H]1C
  3, 2, -3.5, ., ., i, -2.6, ., .
> Cc1ccc(C23CC4CC(CC(NC(=O)NCCN(C)C)(C4)C2)C3)cc1
  ., ., ., 0.7, 3%, ., ., 0.7, -5
> Cc1nc(Br)c(Br)c(C)c1Br
  4, 10, 2.1, ., -3%, i, -4.5, -6.9, 0
> CC(=O)N(C)C[C@@H]1Oc2cc(-c3cccnc3)ccc2S(=O)(=O)N([C@@H](C)CO)C[C@@H]1C
  1, -3, -0.6, ., ., i, -5.1, ., .
> C[C@H](CO)N1C[C@H](C)[C@H](CN(C)S(=O)(=O)c2ccc(Cl)cc2)Oc2ccc(NS(=O)(=O)c3cccs3)cc2C1=O
  -2, -8, 1.2, ., ., i, -2.7, ., .
> COc1ccc(NC(=O)C/C(C)=N/NC(=O)c2ccco2)c([N+](=O)[O-])c1
  -1, 10, -2.3, ., ., i, 1.2, 2.6, 22
> CCn1c(SCC(=O)OC)nc2sc3c(c2c1=O)CCC3
  ., ., ., 0.67, 13µM*, ., ., -8.1, -4
> CCCCCC(=O)N1CCN(CCN=CC2=C(O)CC(c3ccco3)CC2=O)CC1 (centres undefined)
  ., ., ., 0.68, 18%, ., ., -0.3, -3
> CCCN(C)C[C@@H]1Oc2cc(C#CC3(O)CCCC3)ccc2S(=O)(=O)N([C@@H](C)CO)C[C@@H]1C
  3, 1, -2.0, ., ., i, 0.8, ., .
> COc1ccc(OC)c(S(=O)(=O)Nc2ccc(CC(=O)O)cc2)c1
  ., ., ., 0.67, 15%, ., ., -4.3, -11
> CCOCCCNC(=O)c1ccc2c(c1)ncn2-c1ccc(CC)cc1
  -15, -22, -2.9, 0.66, 1%, i, -3.1, 1.0, -7
> CCOc1ccc(CCNC(=O)COC(=O)/C=C/c2ccccc2OC)cc1OCC
  6, 8, 0.6, 0.69, 7%, i, 0.8, 5.1, -1
> Fc1cccc(Cl)c1/C=N/n1c(-c2cccnc2)n[nH]c1=S
  4, 7, -1.6, ., 0%, i, -3.0, 0.8, -4
> O=C(NN1CCOCC1)NC12CC3CC(CC(C3)C1)C2
  3, 4, -3.2, 0.64, -1%, i, -1.8, 5.0, -10
> C[C@@H]1CN([C@H](C)CO)C(=O)c2cc(NC(=O)Cc3ccccc3)ccc2O[C@@H](C)CCCCO[C@H]1CN(C)C(=O)CCC(F)(F)F
  -3, -6, -1.2, ., ., i, -2.1, ., .
> Cc1cc(C(=O)OCC(=O)Nc2cccc(S(N)(=O)=O)c2)c2ccccc2n1
  -20*, -13*, 5.2*, 0.74, 31%, i, -11, 1.0, -9
> C[C@@H]1CN([C@H](C)CO)S(=O)(=O)c2ccc(-c3cccc(C(=O)N(C)C)c3)cc2O[C@H]1CN(C)C(=O)Nc1ccc(F)cc1
  -2&-3, -5&-5, -1.1&-1.4, ., ., i, -4.4&-0.4&0.4, -0.8, .
> O=c1[nH]cnc2c1c(-c1ccccc1)cn2-c1cccc(Cl)c1
  -54, -79, -16, 0.74, ., i, 1.1, -3.1, 2
> CC1CCc2c(sc(NC(=O)COC(=O)C3CCCO3)c2C#N)C1 (centres undefined)
  -8, -15, -0.5, 0.67, ., i, -1.5, -1.4, .
> Cc1cc(C(=O)Nc2cccc3c2O[C@H](CN(C)Cc2ccc(-c4ccccc4)cc2)[C@H](C)CN([C@H](C)CO)C3=O)n(C)n1
  -4, -8, -1.1, ., ., i, -3.6, ., .
> O=C(Nc1ccccc1F)C1CCCN1S(=O)(=O)c1ccc(Cl)cc1 (centres undefined)
  -2, -7, -2.8, 0.7, -3%, i, -3.5, 1.7, -2
> O=C(N/N=C/c1coc2ccc(Cl)cc2c1=O)c1cc(O)cc(O)c1
  -3, -2, -0.9, ., 2%, i, -0.7, -0.1, 96*
> C[C@H](CO)N1C[C@H](C)[C@H](CN(C)C(=O)Nc2ccc(C(F)(F)F)cc2)Oc2ccc(NC(=O)Nc3ccc4c(c3)OCO4)cc2C1=O
  -9, -23, 1.6, ., ., i, 0.9, ., .
> Cn1ncc([N+](=O)[O-])c1C(=O)NC1CCCCCC1
  10, 10, 2.6, 0.7, -6%, i, -0.8, 1.6, .
> CCOC(=O)c1c(C)[nH]c(C(=O)NNC(=O)c2ccccc2)c1C
  ., ., ., 0.67, -2%, i, 1.8, -1.7, 6

# Reformatted with values ahead of the structure: entries from further up
Ecoli rRNA inh	Ecoli rRNA inh OD600	Ecoli rRNA inh RFP	Ecoli growth	Vif A3G	FGF22 binding	AF4-AF9 inh	HNF4A DNA FP	ALR inh	SMILES
-4	12	-1.3	.	.	i	-1.3	.	.	Cc1ccc(S(=O)(=O)N(C)C[C@H]2Oc3ccc(NC(=O)Cc4cn(C)c5ccccc45)cc3CC(=O)N([C@H](C)CO)C[C@@H]2C)cc1
.	.	.	0.71	4%	.	.	-1.5	.	Cc1c(Br)c([N+](=O)[O-])nn1CC(=O)N1CCCc2ccccc21

# Bioassay records: PubChem BioAssay, several laboratories
